# SmPrx2 inh: inhibitors of Schistosoma mansoni peroxiredoxin 2; Potency, µM; S. mansoni Prx2 activity coupled to TGR/GSH (TGR is thioredoxin glutathione reductase), NADPH fluorescence loss, qHTS; some inactives read as strong as hits; AID 448; hit rate 0.07% among 65,000; active means full or partial inhibition curve with a strong effect at the top dose; inconclusive means weaker partial or single-point curve; inactive means no accepted curve; also: series up to 57 µM; many of its hits are not listed in these tables
#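 Coupled assay in which S. mansoni TGR passes NADPH reducing equivalents via glutathione to Prx2, which reduces H2O2. Compounds were preincubated 15 min at room temperature with 25 nM TGR/50 nM Prx2 mix. Kinetic NADPH fluorescence loss (ex 365/em 450 nm) was monitored.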
# LT uptake inh: anthrax lethal toxin internalization inhibition; Cells, anthrax lethal toxin internalization, FRET ratio (460/530); Potency, µM (series often up to 40 µM), without a hit: top-dose activity change, negative = inhibition, hits mostly inhibitors; hit rate 0.67% among 70,000; AID 912; active = well fitted falling ratio curve with the 530 nm signal flat; inconclusive = other ratio curves, or a change in one channel alone; inactive = flat curves in the ratio and both channels; the % refers to the ratio; also: % is scaled to controls: 0 for no effect and ±100 for the full control effect; nearly all actives have a fitted effect of over 50% in size; tested in ME-180 cells; beta-lactamase reporter
# * = called active by the depositor; ? = inconclusive; . = no result given; [ ] = dose if it differs, or a comment. Potency is read from the fitted curve at half-maximal effect.
SMILES	SmPrx2 inh	LT uptake inh
CC(=NCCN1CCCCC1)c1c(O)n(Cc2ccccc2)c(=O)[nH]c1=O	>57	-7%
COc1ccc(NC(=O)N2CCCC3(CCN(C(=O)c4ccncc4)CC3)C2)cc1	>57	3%
O=C(NC12CC3CC(CC(C3)C1)C2)N1CCN(C(=O)C2CCCO2)CC1 (stereo not given)	>57	-13%
Nc1nc(Nc2cccc3ccccc23)nc(C2CCCC2=O)n1 (stereo not given)	>57	3%
CCN1C[C@]2(C)CC[C@H](O)[C@@]34[C@@H]5CC6[C@@H](OC)C[C@@](O)([C@@H]5[C@@H]6O)[C@H](C[C@@H]23)[C@H]14	>57	4%[3.58 µM]
COc1nc(Nc2cccc(C(F)(F)F)c2)nc(OC)n1	>57	-21%
O=C(COC(=O)c1ccc(S(=O)(=O)Nc2ccccc2)cc1)NCCN1C(=O)CSC1=O	>57	?
Cc1nnc(N(CCC#N)CCC#N)s1	>57	-12%
Cc1ccc(C(=O)Nc2cccc(C(=O)NCc3ccco3)c2)cc1	>57	-3%
CN/S(=N/S(=O)(=O)c1ccccc1)c1ccc(C)cc1 (stereo not given)	>57	-8%
COc1ccc2nc(-c3ccccc3)[nH]c2c1	>57	8%
C=C(C)[C@H]1Cc2c(ccc3c2O[C@H]2COc4cc(OC)c(OC)cc4[C@@H]2C3=O)O1	>57	?
COc1ccc(-n2ncc3c(NCc4cccs4)ncnc32)cc1	>57	-5%
O=C(Cc1cc(=O)[nH]c(=O)[nH]1)N1CCC(Cc2ccccc2)CC1	>57	12%
CSc1cccc(NC(=O)CSc2nnc(C)s2)c1	>57	13%
Cc1ccccc1C(=O)NC1CCN(Cc2nnnn2Cc2ccc(F)cc2)CC1	>57	-1%
CC1(C)CC(=O)C=C(Nc2cc(-c3ccccc3)[nH]n2)C1	.	-12%
N/C(=N\c1nc2c(c(=O)[nH]1)CCCC2)Nc1ccccc1	>57	-11%
O=C(CC1Sc2ccccc2NC1=O)Nc1cccc(C(=O)O)c1 (stereo not given)	>57	-8%
CC1(C)CC2CC(C)(CN2C(=O)CCCN2C(=O)c3ccccc3C2=O)C1 (stereo not given)	.	5%
Cc1cc(C)cc(OCc2nnc(SCC(=O)Nc3ccccc3)o2)c1	>57	2%
CCCCC(=O)Nc1cccc(-c2nn3c(C)nnc3s2)c1	>57	-8%
CC(C)CO/N=C1/C[C@@H](O)[C@@H](O)[C@@H]2[C@@H]3C(=O)N(C4CCCCC4)C(=O)[C@H]3CC[C@H]12	.	0%[8 µM]
COc1cc(C(=O)N(Cc2cc3ccccc3[nH]c2=O)CC2CCCO2)cc(OC)c1OC (stereo not given)	>57	?
COc1cc2c(cc1OC)C(c1cccs1)NCC2 (stereo not given)	>57	-21%
O=C(c1sc2ccccc2c1Cl)N1CCC2(CC1)OCCO2	>57	-22%
O=C(O)c1coc2ccccc12	>57	2%
O=C(CCCC(=O)N1CCc2ccccc21)N1CCc2ccccc21	>57	-9%
O=C(O)COc1cccc(NC(=O)C2CCCO2)c1 (stereo not given)	>57	0%
CCOC(=O)C1=C(c2ccccc2)NC(SCC(=O)NC2CCCCC2)=C(C#N)C1c1ccco1 (stereo not given)	>57	-5%
CC(C)CCn1c(N)c(S(=O)(=O)c2cccs2)c2nc3ccccc3nc21	>57	?
COc1ccc(C)cc1S(=O)(=O)N1CCN(c2cccc(C(F)(F)F)c2)CC1	>57	-6%
O=S(=O)(O)CCN1CCOCC1	>57	19%
O=C1CC(N2CCCN(C3CC(=O)N(c4ccc(F)cc4)C3=O)CC2)C(=O)N1c1ccc(F)cc1 (stereo not given)	>57	?
Cc1ccc(S(=O)(=O)c2c(N)n(CC3CCOC3)c3nc4ccccc4nc23)cc1 (stereo not given)	>57	5%
CCNC(=O)C1CC(=O)N(CC)C(=Nc2cc(Cl)c(O)c(Cl)c2)S1 (stereo not given)	>57	7%
O=C(COC(=O)c1cccs1)c1ccc2c(c1)OCCO2	>57	8%
Nc1cc(=O)[nH]c(SCCNS(=O)(=O)c2ccccc2)n1	>57	?
Cc1ccc2c(COC(=O)c3cnc(C)cn3)cc(=O)oc2c1	>57	5%
CCn1nc(C(=O)OCC(=O)c2c[nH]c3ccccc23)c2ccccc2c1=O	>57	-28%
CCOC(=O)Cn1cnc2c(cnn2-c2ccc(Cl)cc2)c1=O	>57	-13%
CCCN(S(=O)(=O)c1ccc(OCC)cc1)S(=O)(=O)c1cccs1	>57	-4%
O=C(CSc1nc2ccccc2[nH]1)NCCN1CCCCC1	>57	-12%
CC(C)Nc1nc(N(c2ccccc2)c2ccccc2)nc(-n2ccnc2)n1	>57	-15%
Cc1ccccc1CS(=O)(=O)CCC(=O)N1CCN(c2ccc(N3CCOCC3)nn2)CC1	>57	0%
CC(=O)N=c1sc2ccccc2n1C	>57	10%
CS(=O)(=O)NCCSc1nnnn1-c1ccccc1	>57	5%
CC(=O)N1CCN(C(=O)COc2ccc(Br)cc2)CC1	>57	-2%
CC(C)CC(NC(=O)COc1ccccc1)C(=O)O (stereo not given)	>57	-6%
CC(=O)C1=C(O)C(=O)N(CCc2c[nH]c3ccccc23)C1c1ccc(O)cc1 (stereo not given)	>57	0%

# Going on with the list.
# Below each compound – SmPrx2 inh | LT uptake inh
COc1cccc(Nc2ncc3nc(-c4cc(F)cc(F)c4)c(=O)n(C4CC4)c3n2)c1
    >57 | ?
CCCOC(=O)c1cccc(NC(=O)C(C)(C)C)c1
    . | -11%
COc1ccc2[nH]c3c(c2c1)CCNC3
    >11 | -16%
O=C(CSc1nnc(-c2ccco2)o1)NC1CCCCC1
    . | -13%
COc1ccc(-c2nc(C#N)c(NCc3ccccc3Cl)o2)cc1
    >57 | -16%
CCOc1ccc(N(CC(=O)Nc2ccc(F)c(F)c2)S(=O)(=O)c2c(C)noc2C)cc1
    >57 | 0%
CN1CCN(c2ccc(Cl)cc2NC(=O)c2nn(-c3ccccc3)c(=O)c3ccccc23)CC1
    >57 | -11%
CC(=O)OCC1=C(C(=O)O)N2C(=O)[C@@H](N)[C@@H]2SC1
    >57 | 7%[3.58 µM]
COc1ccc(CN2C(=O)c3ccccc3C2C(=O)NCc2cccnc2)c(OC)c1 (stereo not given)
    >57 | 3%
CCC(=O)[C@@]1(O)C(=O)N2C(=C3C(=O)OCCC31)N(Cc1ccccc1)C(C)=C(C(=O)OC)C2c1ccccc1 (stereo not given in full)
    . | -7%[8 µM]
COc1ccc(C(OC(=O)c2ccco2)C(=O)NCc2ccco2)cc1 (stereo not given)
    >57 | 15%
CNC(=O)CSc1nnc(-c2cc3c(C)nn(-c4ccccc4)c3s2)n1C
    >57 | 1%
COC(=O)c1ccc(C(c2c(N)n(Cc3ccccc3)c(=O)n(C)c2=O)N2CCOCC2)cc1 (stereo not given)
    >57 | -34%
CCC(O)(CCN1CCCCC1)c1ccccc1 (stereo not given)
    >57 | -28%
CCOC(=O)Nc1cc(OC)c(OC)cc1Cc1nccc2cc(OC)c(OC)cc12
    >57 | ?
CCOC(=O)N1CCC(NC(=O)c2cc(S(=O)(=O)N3CCCC3)cn2C)CC1
    >57 | ?
COc1ccc(C)cc1-n1nnnc1SCC(=O)N1CCC(C(=O)Nc2nccs2)CC1
    >57 | -6%
O=C(CN1CCCCC1)NCCNC(=O)CN1CCCCC1
    >57 | ?
CC(C)(C)NC(=O)COC(=O)Cc1ccc(Cl)cc1
    >57 | -11%
CCN(C(=O)CCN1C(=O)c2ccccc2C1=O)C1CCCCC1
    >57 | 0%

# Single records, as listed above:
# COc1ccc(CN2C(=O)c3ccccc3C2C(=O)NCc2cccnc2)c(OC)c1 (stereo not given) is entered as SmPrx2 inh: >57; LT uptake inh: 3%
# CCC(O)(CCN1CCCCC1)c1ccccc1 (stereo not given) is entered as SmPrx2 inh: >57; LT uptake inh: -28%
# CC(=O)OCC1=C(C(=O)O)N2C(=O)[C@@H](N)[C@@H]2SC1 is entered as SmPrx2 inh: >57; LT uptake inh: 7%[3.58 µM]

# 2 compounds picked at random from the list so far:
# Below each compound – SmPrx2 inh | LT uptake inh
CCC(O)(CCN1CCCCC1)c1ccccc1 (stereo not given)
    >57 | -28%
CC(=O)OCC1=C(C(=O)O)N2C(=O)[C@@H](N)[C@@H]2SC1
    >57 | 7%[3.58 µM]

# Other records:
# Below each compound – SmPrx2 inh | LT uptake inh
OC[C@H]1NC[C@H](O)[C@@H](O)[C@H]1O
    >57 | -11%
CCOc1ccc(C(=O)N(CN2CCCC2=O)c2ccc(C)cc2)cc1
    >57 | 15%
O=C(CN1C2=NCCCN2c2ccccc21)c1ccc(Br)s1
    >57 | -27%
Cn1cccc1Cc1nnc(SCC(=O)Nc2ccccc2F)n1CCc1ccccc1
    >57 | -23%
Cc1ccc(S(=O)(=O)N[C@H]2COC(=O)C/C=C\[C@H](C)[C@@H](NS(=O)(=O)c3ccc(C)cc3)COC(=O)C/C=C\[C@@H]2C)cc1
    . | 0%[8 µM]
CCCn1c(=O)c2ccccc2n2c(SCC(=O)c3cc(C)n(CCOC)c3C)nnc12
    >57 | -24%
CNC(=O)[C@]1(C)C[C@H]1[C@H](NC(=O)[C@]1(C)C[C@H]1[C@H](NC(=O)OCc1ccccc1)c1ccccc1)c1ccccc1
    . | -14%
O=C(NC1CC2CCCC(C1)N2C(=O)NC1CCCCC1)c1ccccc1 (stereo not given)
    >57 | 1%
O=C(NCC1CCCO1)c1ccc2c(c1)OCO2 (stereo not given)
    . | 2%
CCC1CCCCN1C(=O)Cn1c(C(=O)OC)cc2ccsc21 (stereo not given)
    >57 | -9%
Cc1ccc(-c2nc3ncccc3o2)cc1NC(=O)Cc1ccc(Cl)cc1
    >57 | 6%
COc1ccc(CC[N@+]2(C)COc3cc4oc(=O)cc(C)c4cc3C2)cc1OC
    >57 | 8%[8 µM]
CCC(=O)Nc1nc(CC(=O)Nc2ccccc2)cs1
    >57 | 4%
COc1cccc(NC(=O)CSc2nnc(-c3cc(-c4ccccn4)nc4ccccc34)o2)c1
    >57 | 2%
CCN(CC)C1CC(=O)N(c2cccc(C)c2)C1=O (stereo not given)
    >57 | -17%
CCNS(=O)(=O)c1cc(S(C)(=O)=O)ccc1Cl
    >57 | -5%
CCOC1(NC(=O)c2ccccc2)C(C)=CC(=O)C=C1C
    >57 | -2%
CC(C(=O)c1ccccc1)n1cnc2ccccc2c1=O (stereo not given)
    >57 | 10%
CCCCOc1cccc(C(=O)O)c1
    >57 | -1%
COc1ccc2[nH]cc(CCNc3nc(-c4ccc(C(=O)N(C)C)cc4)nc4ccccc34)c2c1
    >57 | -17%

# 2 neighbouring entries already listed, for reference:
# Below each compound – SmPrx2 inh | LT uptake inh
CCCCOc1cccc(C(=O)O)c1
    >57 | -1%
COc1ccc2[nH]cc(CCNc3nc(-c4ccc(C(=O)N(C)C)cc4)nc4ccccc34)c2c1
    >57 | -17%

# More records follow.
# Below each compound – SmPrx2 inh | LT uptake inh
CCCOc1ccc(-c2cnc(SCC(N)=O)nc2N)cc1
    >57 | -12%
CS(=O)(=O)Nc1ccc(C(=O)NC2CCCC2)cc1
    >57 | .
CCCCCCN=CC1=C(O)CC(C)(C)CC1=O
    >57 | 4%
CCc1nnc(NC(=O)CSc2nnc(-c3ccccc3NC(=O)c3ccccc3)o2)s1
    >57 | -12%
O=C(CCc1ccccc1)OCCN1CCOCC1
    >57 | 6%
CN(C)C(=O)c1ccc(-c2ccc3ncnc(NC4CCNCC4)c3c2)cc1
    >57 | -11%
COC(=O)C/C=C\[C@H](C)[C@@H](OCc1ccccc1Br)C(C)C
    . | 0%[8 µM]
N#Cc1nc(Cc2ccccc2)oc1N1CCN(c2ccccc2)CC1
    >57 | -3%
CCOC(=O)c1ccc(COC(=O)c2nonc2N)cc1
    >57 | -17%
Cc1occc1-c1nc(-c2ccccn2)no1
    . | 6%
O=c1c(-c2cc(F)cc(F)c2)nc2cnc(N3CCOCC3)nc2n1-c1ccccc1
    >57 | ?
COc1ccc(CCNC(=O)CSc2nnnn2Cc2ccc3c(c2)OCO3)cc1OC
    >57 | 5%
CCOc1cc(NC(=O)c2ccccn2)c(OCC)cc1NC(=O)CC(C)C
    >57 | 4%
CCOC(=O)CSc1nc(N)cc(=O)[nH]1
    >57 | -12%
CCOc1ccccc1CN1CCN(S(C)(=O)=O)CC1
    >57 | 13%
Nc1nc(OCC(F)(F)F)cc(Oc2ccccc2F)n1
    . | -17%
CCOc1cc(C(=O)Nc2ccc(S(=O)(=O)N3CCOCC3)cc2)cc(OCC)c1OCC
    >57 | -1%
O=C(CCN1CCC(c2ccccc2)C1)c1cccs1 (stereo not given)
    >57 | -21%
CCN(CC)C(c1ccc(C)cc1)c1nnnn1C1CCCCC1 (stereo not given)
    >57 | ?
CCOC(=O)c1oc2cc(O)ccc2c(=O)c1-c1csc(C)n1
    >57 | 9%
Cc1cccc(OCc2nnc(SCC(=O)c3ccccc3)o2)c1
    >57 | ?
CN1CCN(S(=O)(=O)c2ccc(N)cc2)CC1
    >57 | 19%
Cc1ccc(C2C(=O)N(C3CCCC3)CC(=O)N2CC2COc3ccccc3O2)cc1 (stereo not given)
    >57 | 2%
COc1ccc(N2C(=O)CC(NCc3ccncc3)C2=O)cc1 (stereo not given)
    >57 | 10%
CCS(=O)(=O)c1ccc(S(=O)(=O)CC)s1
    . | -3%
O=C(O)C1CCCN(S(=O)(=O)c2ccc(F)cc2)C1 (stereo not given)
    >57 | 8%
CCn1c(=O)c(C(=O)NCCCO)c(O)c2ccccc21
    >57 | -29%
O=C(Cc1ccccc1)Nc1nnc(-c2ccco2)s1
    >57 | -9%

# Screens (PubChem)

# Only part of the results is shown, so the mix of outcomes need not match the whole.
